GLA inh pH 4.5: alpha-galactosidase A (human) inhibition, pH 4.5; P06280; purified enzyme, 4-MU-alpha-Gal fluorescence, pH 4.5; activity change, negative = inhibition, % at 105 µM; 230,000 tested, under 10 active; AID 1467; inconclusive = small, poorly fitted or top-dose-only inhibition, or a rising curve; inactive = flat fitted curve, though single readings scatter; no compound was filed as active;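 note: 0% = full activity with enzyme and -100% = basal without enzyme; dose as in the result columns while the protocol names 77 µM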
Rango dissoc inh: prevents RanGTP from dissociating the Rango-importin beta complex; O95149+P62826; Biochemical FRET Rango-importin beta, RanGTP-induced dissociation; Potency, µM (titrated, usually from 46.1 µM), for inactives: top-dose activity change, negative = inhibition; 340,000 tested, 0.071% active; AID 540253; active means falling FRET ratio curve, often poorly fitted, with flat reads before Ran was added; inconclusive means other falling curves, or compound fluorescence or quenching; inactive means flat or rising ratio curve;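 note: potency is the fitted concentration of half-maximal effect; % of control where 0% means no effect; nearly all actives have a fitted effect of over 45% in size; -100% = wells without RanGTP and RCC1; the record marks most hits as doubtful in a second field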
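Two FRET readings bracket the reaction: one 5 min after compound meets Rango–importin beta, another 45 min after RanGTP-RCC1 (0.6 uM Ran, 0.2 uM RCC1, 2 mM GTP) is added. Only the second defines inhibition.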
Rango complex inh: prevents formation of the Rango-importin beta complex | Q14974 | Rango CFP/YFP FRET sensor + importin beta, 45 min | Potency, µM (doses to about 92.2 µM), without a hit: at the highest dose inhibition of complex formation | 340,000 tested, 0.031% active | AID 540263; active = rising FRET ratio curve, often small or poorly fitted; inconclusive = mostly compound fluorescence or quenching in the first reads; inactive = flat curves in all reads;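 note: potency is the fitted concentration of half-maximal effect; 0% = DMSO wells and 100% = buffer wells lacking importin beta; nearly all actives have a fitted effect of over 15% in size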
Target sequence (Q14974 whole entry, looked up): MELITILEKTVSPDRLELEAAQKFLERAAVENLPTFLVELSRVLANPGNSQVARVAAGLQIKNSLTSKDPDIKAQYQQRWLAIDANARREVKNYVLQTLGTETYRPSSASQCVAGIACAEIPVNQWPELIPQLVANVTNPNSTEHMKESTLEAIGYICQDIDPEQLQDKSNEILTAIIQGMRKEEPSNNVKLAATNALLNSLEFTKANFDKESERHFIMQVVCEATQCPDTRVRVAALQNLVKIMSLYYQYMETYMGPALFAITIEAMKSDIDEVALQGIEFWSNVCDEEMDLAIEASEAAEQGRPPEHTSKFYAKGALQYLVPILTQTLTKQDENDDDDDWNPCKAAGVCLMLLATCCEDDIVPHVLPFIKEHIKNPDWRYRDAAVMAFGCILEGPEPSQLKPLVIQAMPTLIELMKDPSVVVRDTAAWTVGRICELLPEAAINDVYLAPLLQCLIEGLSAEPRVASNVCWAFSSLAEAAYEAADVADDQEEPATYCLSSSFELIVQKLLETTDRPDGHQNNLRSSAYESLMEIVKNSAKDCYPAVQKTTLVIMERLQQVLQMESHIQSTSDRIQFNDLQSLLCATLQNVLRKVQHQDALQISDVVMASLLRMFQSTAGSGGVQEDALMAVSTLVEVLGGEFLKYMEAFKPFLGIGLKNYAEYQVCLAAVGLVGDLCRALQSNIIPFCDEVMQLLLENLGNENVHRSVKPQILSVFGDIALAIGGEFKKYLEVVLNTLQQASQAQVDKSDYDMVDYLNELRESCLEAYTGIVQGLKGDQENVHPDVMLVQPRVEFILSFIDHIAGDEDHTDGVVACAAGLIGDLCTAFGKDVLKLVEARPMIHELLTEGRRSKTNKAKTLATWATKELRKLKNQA
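FRET biosensor Rango (snurportin 1 IBB between N-terminal EYFP and C-terminal Cerulean), 50 nM in PBS/1 mM DTT/0.02% Tween-20/0.1% BSA, preincubated 5 min RT with compound; 0.125 microM importin beta added, 45 min RT, CFP/YFP FRET ratio read.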
miR-21 FLuc: raises the signal of a miR-21 reporter; HeLa miR-21 FLuc reporter, luciferase, 48 h; Potency, µM (top dose mostly 38.3 µM), without a hit: top-dose reporter change, positive = more light; 340,000 tested, under 10 active; active = well fitted rising curve with a large enough effect; inconclusive = small, poorly fitted or top-dose-only effect; inactive = no such curve, though single readings can be large or run the other way;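 note: % of control where 0% means no effect; miR-21 action dims this reporter so a rising signal means less miR-21 action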
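HeLa cells endogenously expressing miR-21, stably carrying CMV-driven firefly luciferase with a downstream miR-21 binding site, 2000 cells/well. Titrations up to approximately 40 uM, 48 hours; luciferase luminescence read.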
* hit, by the source's call; ? = inconclusive; . = no result given; & = joins results of further samples; [ ] = remark or other dose. An excerpt; the hit share may differ from the screen's.

GLA inh pH 4.5 | Rango dissoc inh | Rango complex inh | miR-21 FLuc | SMILES
. | 5% | 2.4% | 3% | Cc1cc(C)cc(OCCNC(=O)C2CCN(S(=O)(=O)c3ccccc3)CC2)c1
. | -1% | -7.6% | -4% | O=C(Cc1ccc(Cl)cc1)Nc1ccccc1C(=O)N1CCCCC1
. | 5% | 0.7% | -28% | COc1ccc(-n2ncc3c(N(C)C4CCCCC4)ncnc32)cc1
4 | . | . | -20% | COC(=O)c1ccc(NC(=O)c2cnc3scc(C)n3c2=O)cc1
. | 2% | -0.8% | 0% | CN1CCN(S(=O)(=O)c2cc(Cl)c(Cl)cc2Cl)CC1
-4 | ? | -9.6% | -4% | COc1ccccc1OC(C)c1nnc(SCC(=O)Nc2c(C)n(C)n(-c3ccccc3)c2=O)n1-c1ccccc1 (stereo not given)
4 | 25% | -2.0% | -5% | Cc1ccc(-c2c(C(=O)O)c(C(=O)O)c3n2CCC3)cc1
2 | 2% | -5.6% | -2% | CNC(=O)CS(=O)(=O)CC(=O)Nc1cc(OC(C)C)c(Cl)cc1Cl
. | 53% | -4.4% | -2% | CC(C)(C)OC(=O)N1CCC(c2c(C(=O)N3CCN(C4CCCCC4)CC3)cnn2-c2ccc(F)cc2)CC1
-7 | -9% | -3.5% | 0% | COc1cc2c(cc1OC)CN(C(=O)Cc1ccc(OC)c(S(=O)(=O)N3CCOCC3)c1)CC2
7 | 1% | -0.2% | 11% | CC(C)(C)c1ccc(NC(=O)Cn2cnc3cc([N+](=O)[O-])ccc3c2=O)cc1
3 | -1% | ? | -5% | COc1ccc(NC(=O)N/C=C/c2ccco2)cc1
-11 | 1% | 1.6% | 14% | CCN(CC)S(=O)(=O)c1cccc(NC(=O)CSc2nc3ccccc3[nH]2)c1
. | 28% | 2.6% | . | CCc1ccc(NC(=O)CN2CCN(c3ccc(OC)cc3)CC2)cc1
1 | 1% | 0.8% | 16% | O=C(CC(c1ccccc1)c1ccccc1)Nc1ccc(Cl)cn1
-3 | -3% | -0.8% | -1% | Cc1ccc(S(=O)(=O)N(C(=O)c2ccncc2)c2ccc(OC(=O)c3ccncc3)cc2)c(C)c1
. | 7% | 8.4% | -6% | Cc1cc(C)cc(OCC(O)CN2CCN(C(=O)c3ccco3)CC2)c1 (stereo not given)
. | 11% | 0.0% | 5% | CCOC(=O)Nc1ccc2c(c1)N(C(=O)CCN(C)C)c1ccccc1CC2
. | 0% | 3.4% | . | COc1ccc(NC(=O)CN(C)C(=O)c2cccc(NS(=O)(=O)c3ccc(Br)cc3)c2)cc1
3 | -9% | 0.2% | -46% | c1ccc2c(c1)Cn1nc(Cc3nc4c(s3)CCCC4)nc1-2
. | 16% | 0.2% | . | Cc1ccc2nc3n(c2c1)CCCN3
2[21.1 µM] | 11% | 4.0% | -1% | Cc1ccc(N(CC(=O)N=Nc2c(O)[nH]c3ccccc23)S(C)(=O)=O)c(C)c1
-9 | 6% | 0.9% | -21% | Cc1ccc(NC(=O)NC(=O)CSc2nnnn2C)c(C)c1
. | 1% | -0.9% | 2% | Cc1cccc(CNC(=O)c2ccccc2NC(=O)C2=CSCCO2)c1
-9 | 6% | 0.2% | 0% | CC(C)c1nnc(NC(=O)CCC(=O)NC2CCCCC2)s1
-7 | -22% | 2.4% | -2% | O=S(=O)(c1cccs1)n1cnc2ccccc21
. | -13% | ? | . | CCC1CN2CCc3cc(OC)c(OC)cc3C2CC1CC1c2cc(OC)c(OC)cc2CCN1C(=O)C(Cc1c[nH]c2ccccc12)NC(=O)OC(C)(C)C (stereo not given)
? | 14% | -3.9% | -2% | CC(C)OP(=O)(c1ccc(N(C)C)cc1)C(O)c1c(Cl)cccc1Cl (stereo not given)
. | 1% | -1.3% | -53% | Cc1ccsc1/C=N/N=C/c1sccc1C
4 | ? | 0.6% | -3% | O=C(NCc1ccccc1)C1=C[C@@H](C2CC2)C[C@@H](OCCCCO)O1
-11 | ? | ? | 10% | COc1cccc(C2=CC(c3ccccc3)n3nnnc3N2)c1 (stereo not given)
-23 | 4% | 1.1% | 0% | O=C(NCCc1ccccn1)C(F)(F)C(F)(F)C(F)(F)C(F)(F)C(F)(F)C(F)F
6 | 5% | 1.1% | 0% | COC(=O)CC1C(=O)NCCN1C(=O)CSc1nc2ccccc2c(=O)n1CC(C)C (stereo not given)
. | -4% | -0.5% | . | Cn1c(=O)c(N=O)c(N)n(Cc2ccccc2)c1=S
1 | -15% | 1.4% | -1% | O=C(c1ccc(-c2ccccc2)cc1)C1CCCN(C(=O)c2ccncc2)C1 (stereo not given)
1 | -23% | -0.7% | 7% | CCc1cc(C(=O)N2CCCC(C(=O)c3cccc(OC(C)C)c3)C2)n(C)n1 (stereo not given)
-3 | ? | ? | -44% | c1ccc2[nH]c3cc4ncnc4cc3nc2c1
2 | 3% | 0.2% | -9% | Cc1ccc(-c2nnn(CC(=O)N(Cc3ccccc3F)C(C(=O)NC3CCCC3)c3ccncc3)n2)o1 (stereo not given)
. | -1% | -0.3% | -5% | CC12CCCCC1NS(=O)(=O)OC2 (stereo not given)
. | -13% | -2.6% | -37% | O=C(O)Cc1ccc(NC(=O)Nc2ccc3c(c2)OCO3)cc1
2 | -9% | 6.1% | -5% | CCCCOC(=O)CSc1n[nH]c(=O)[nH]c1=O
2 | 6% | 4.3% | -19% | O=C(Nc1nc2cc3c(cc2s1)OCCO3)c1ccc(N2C(=O)CCC2=O)cc1
4 | ? | ? | -71% | CNC(=O)/C(C#N)=C/c1ccc(-c2ccc(Cl)cc2)o1
. | -4% | 6.3% | . | CSC(C1CCCC1)n1nnc2ccccc21 (stereo not given)
2 | -12% | -0.7% | -4% | Nc1nc(NC(=O)/C=C\C(=O)O)nn1-c1ccccc1
-4 | 7% | 3.9% | -71% | Clc1ccc(-c2cnc3ccccc3n2)cc1
. | -11% | -0.5% | 1%&-9% | Cc1ccccc1S(=O)(=O)Cc1ccc(C(=O)NC2CCCCC2)o1
-26 | -23% | ? | -8% | O=C(/C=C1\NCC2c3ccccc3CCN2C1=O)c1ccccc1 (stereo not given)
. | -5% | 1.9% | 1% | CCCNc1c(NS(=O)(=O)c2ccc(C(C)(C)C)cc2)c(=O)oc2ccccc12
2 | -5% | 0.8% | -5% | Cn1c(=O)n(C)c2cc(CNc3ccc(N4CCOCC4)c(C(=O)O)c3)ccc21
2 | -6% | ? | -17% | COc1ccc(C2CN=NC2C(=O)c2ccccc2)cc1 (stereo not given)
-9 | -18% | 3.4% | -13% | Cc1cc(C)n2nc(SCC(=O)Nc3ccc(F)cc3)nc2n1
-8 | -18% | -0.8% | 0% | CCOC(=O)C(C(=O)N(C)C)c1ncc(C(F)(F)F)cc1Cl (stereo not given)
1 | -1% | -0.6% | 0% | C/C(=N\NC(=O)C1COc2ccccc2O1)c1ccc(C)o1 (stereo not given)
. | -3% | 3.4% | 0% | Cn1nnc(NC(=O)c2ccc(Br)o2)n1
. | 17% | ? | 11% | CN(CC(=O)Nc1ccc(Cl)cc1)C(=O)c1cccc(S(=O)(=O)NCc2ccccc2)c1
-6 | -5% | -0.3% | 2% | CCOc1ccccc1NC(=S)NCc1ccco1
. | -9% | -2.7% | 0% | CC(=O)NCCNC(=O)C1CCC(CNc2nc(=S)[nH]c3ccccc23)CC1 (stereo not given)
-8 | -11% | -3.8% | -11% | NC(=O)C1=C[C@H](c2csc3ccccc23)C[C@H](OCCCCO)O1
6 | 13% | -7.6% | -1% | Cc1cccc(NC(=O)CSc2nnc(-c3cnccn3)n2Cc2ccco2)c1

The list goes on; it opens with the 2 that closed the last part.
GLA inh pH 4.5 | Rango dissoc inh | Rango complex inh | miR-21 FLuc | SMILES
-8 | -11% | -3.8% | -11% | NC(=O)C1=C[C@H](c2csc3ccccc23)C[C@H](OCCCCO)O1
6 | 13% | -7.6% | -1% | Cc1cccc(NC(=O)CSc2nnc(-c3cnccn3)n2Cc2ccco2)c1
-12 | ? | ? | -9% | CCOc1ccc(C2C(C#N)=C(N)N(c3sc4c(c3C#N)CCCC4)C3=C2C(=O)CCC3)cc1 (stereo not given)
4 | ? | ? | -64% | N#Cc1ccc(/C=C(\C(=O)C(=O)O)c2ccc3ccccc3n2)cc1
-2 | -5% | -3.7% | 4% | CSc1nc(N)c(C#N)c(-c2ccc(Cl)cc2)c1C#N
-2 | 3% | -7.5% | -3% | COc1cccc(-c2n[nH]c(=S)n2Cc2ccco2)c1OC
. | -13% | 1.6% | 5% | COc1ccc(CCNC(=O)C2CCCN(S(=O)(=O)c3ccc(F)cc3)C2)cc1 (stereo not given)
-3 | -11% | 0.8% | -5% | O=C(Cn1c(C(=O)NCc2ccco2)cc2sccc21)c1ccccc1
-1 | -19% | 0.8% | -8% | Cc1ccc(S(=O)(=O)N2CCOCC2)cc1C(=O)Nc1ccccn1
. | 9% | -5.9% | -8% | CNc1nc(N)c([N+](=O)[O-])c(Nc2ccccc2OC)n1
. | -10% | -2.5% | . | Cc1noc(C)c1NC(=O)Nc1ccc2c(c1)C(=O)N([C@H](C)CO)C[C@H](C)[C@@H](CN(C)S(C)(=O)=O)O2
3 | 0% | 2.9% | 0% | Cc1cc(NC(=O)CSc2nc3sc(C)c(C)c3c(=O)n2C2CCCC2)no1
. | 2% | 2.9% | -17% | O=C(Cc1cccs1)Nc1ccc(F)cc1
0 | 6% | 5.6% | -15% | O=C(CCn1nnc2ccccc21)N1CCC(O)(c2cccc(F)c2)CC1
. | 4% | 0.2% | -3% | O=C(OCCN1CCCCC1)c1ccccc1Br
. | -3% | 0.8% | -10% | Cc1ccc(-c2csc3ncnc(NCCC(=O)O)c23)cc1
. | 10% | 4.4% | 0% | Cc1cc(C)nc(CCNC(=O)CC2C(=O)NCCN2Cc2ccccc2)n1 (stereo not given)
3 | 22% | 11% | -21% | CC(=O)N1CCc2cc(N=NC3=C(O)CC(C)(C)CC3=O)ccc21
. | 11% | -0.7% | -2% | Cc1cccc(NC(=O)CC2(CC(=O)O)CCCC2)c1
. | 0% | 0.9% | . | CC1=C(C(=O)OCc2ccccc2)C(c2ccccc2OS(=O)(=O)c2ccc([N+](=O)[O-])cc2)NC(=O)N1CCCC(=O)O (stereo not given)
7 | 0% | -0.1% | 10% | C=CCn1c(SCC(=O)Nc2ccc3c(c2)OCO3)nnc1-c1ccccc1O
0 | 9% | -0.7% | -8% | O=C(OC1CCN(c2ccc([N+](=O)[O-])cc2)CC1)c1ccccc1
-1 | 3% | -5.0% | -15% | Cn1c(=O)c2c(-c3ccccc3)n(N3CCOCC3)cc2n(C)c1=O
8 | 0% | ? | -5% | C=CCN1C(=O)CN=C1Nc1ccccc1
10 | -7% | -1.1% | -7% | COC(=O)c1[nH]c2ccccc2c1NC(=O)/C=C/c1ccc2c(c1)OCO2
7 | 9% | -4.3% | 10% | CCn1cc(C(=O)NCc2ccncc2)c(=O)c2cc(F)c(N3CCN(C(=O)c4ccco4)CC3)cc21
6 | 10% | -0.1% | -17% | O=C(NNC(=O)c1cccs1)c1ccc(Cl)c(Cl)c1
. | 6% | 0.4% | -6% | Cc1ccc(NC(=O)CN2CCN(C)CC2)cc1Br
4 | -10% | 1.6% | 2% | O=C(/C=C/c1ccc(Cl)cc1)N(Cc1ccccc1)c1ccccn1
3 | 9% | 2.6% | -9% | CCC1(C)Cc2c(sc3nc(NC)n(C)c(=O)c23)CO1 (stereo not given)
3 | 2% | -0.4% | 6% | Cc1ccc(C)c(N(CC(=O)Nc2cc(Cl)ccc2Oc2ccccc2)S(C)(=O)=O)c1
. | -10% | 1.9% | -1% | CCN(C(=O)COc1nc(C)cc(C)c1C#N)c1ccccc1

3 of the compounds above, with each value named.
CCC1(C)Cc2c(sc3nc(NC)n(C)c(=O)c23)CO1 (stereo not given)
  GLA inh pH 4.5: 3
  Rango dissoc inh: 9%
  Rango complex inh: 2.6%
  miR-21 FLuc: -9%
Cc1ccc(C)c(N(CC(=O)Nc2cc(Cl)ccc2Oc2ccccc2)S(C)(=O)=O)c1
  GLA inh pH 4.5: 3
  Rango dissoc inh: 2%
  Rango complex inh: -0.4%
  miR-21 FLuc: 6%
CCN(C(=O)COc1nc(C)cc(C)c1C#N)c1ccccc1
  GLA inh pH 4.5: .
  Rango dissoc inh: -10%
  Rango complex inh: 1.9%
  miR-21 FLuc: -1%

Source: PubChem BioAssay (National Center for Advancing Translational Sciences (NCATS))
